Screening results (PubChem BioAssay)
CBX7 AlphaScr: blocks human CBX7 binding to H3K27me3 peptide. O95931. AlphaScreen His6-CBX7 / biotin-H3K27me3 peptide binding; active compounds read low. normalised signal (fraction of DMSO) (no concentration beside the values). 66,000 compounds, 1.1% hits; in the data active = normalised signal below about 0.5;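 also: 100 nL library stock added to about 20 µL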
Target sequence (O95931 whole entry, looked up): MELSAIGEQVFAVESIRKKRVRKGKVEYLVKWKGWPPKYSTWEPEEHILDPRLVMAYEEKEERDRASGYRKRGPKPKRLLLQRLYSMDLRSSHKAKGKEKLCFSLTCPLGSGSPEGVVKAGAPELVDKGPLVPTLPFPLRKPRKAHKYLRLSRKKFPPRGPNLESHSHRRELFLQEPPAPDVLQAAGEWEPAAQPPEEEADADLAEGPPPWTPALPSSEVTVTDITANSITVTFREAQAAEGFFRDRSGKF
CBX7 AlphaScr z-score: second read-out of CBX7 AlphaScr, no call of its own (marks repeat the call); z-score; measured here: z-score of CBX7 signal; some inactives read as strong as hits; reference of the scale not given here;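 same signal on another scale; lower means less binding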
* = called active by the depositor; & = joins results of further samples.

SMILES	CBX7 AlphaScr	CBX7 AlphaScr z-score
COCCCN1C(=O)Cn2cccc2C1C(=O)NC1CCCCC1C (stereo not given)	1.05	1.05
CC1=C(C(=O)Nc2ccc(C)cn2)C(c2ccc(Cl)cc2)C2=C(CCCC2=O)N1 (stereo not given)	0.94	-0.122
CCOC(=O)c1c(NC(=O)c2ccccc2C)sc2c1CCCCC2	1.52	17.2
CCc1ccc(NS(=O)(=O)c2cc(Br)cc3c2N(C(=O)C2CC2)CC3)cc1	0.982	-0.872
O=C(Cn1c2c(c(-c3ccccc3Cl)cc1=O)CCC2)NC1CC1	0.907	-1.01
Cc1cc(N2CCOCC2)nc2ccc(NC(=O)C3CCC(C)CC3)cc12 (stereo not given)	1.04	1.63
CC1CCCCN1C(=O)CSc1nnc(-c2ccc3c(c2)OCCO3)o1 (stereo not given)	0.97	-0.608
O=C(NCc1ccccc1)C1CCCN(S(=O)(=O)c2cccs2)C1 (stereo not given)	1.04	1.66
Cc1ccc2c(c1)C(c1ccccc1)N(C(=O)C1CCCC1)CC(=O)N2 (stereo not given)	0.952	-1.2
CCCCC(=O)Nc1cccc(-c2nc3cc(C)ccc3o2)c1	1.22	2.12
Cc1ccc(S(=O)(=O)C2(C(=O)Nc3ccc(F)cc3)CC2)cc1	1.06	2.14
Cc1cc2c(cc1C)NC(CC(=O)Nc1ccccc1OC(F)F)C(=O)N2 (stereo not given)	1.1	1.04
O=C(O)c1cccc(Nc2nc(-c3ccc(Cl)cc3Cl)nc3ccccc23)c1	1.11	1.45
COc1cccc(-c2nn(C)c3sc(C(=O)N4CCCc5ccccc54)cc23)c1	0.93	-0.901
Cc1c(C)c2c(C)nn(-c3ccccc3)c2[nH]c1=O	1.01	0.635
COc1ccccc1N1CCN(C(=O)Cc2cn(C)c3ccccc23)CC1	0.844	-2.24
CCc1ccc2c(c1)c(=O)c(S(=O)(=O)c1ccc(C)cc1)cn2CC(=O)Nc1ccc(Cl)cc1	0.813	-2.68
Cc1ccc2c(c1)N(C(C)C(=O)NCc1ccccc1)C(=O)CO2 (stereo not given)	1.03	0.763
COc1cccc(-c2nc(-c3cccs3)no2)c1	1.37	17.8
CCN(CC)S(=O)(=O)c1cccc(C(=O)Nc2nnc(Cc3cccc(C)c3)s2)c1	0.994	-0.00574
CCOC(=O)N1CCc2c(sc(NCc3ccc(N(C)C)cc3)c2C(=O)Nc2ccccc2OCC)C1	0.715	-14.8
CCn1c(C(O)c2ccc(C(C)C)cc2)nc2ccccc21 (stereo not given)	0.968	-0.0317
O=C(C1CCC1)N1CCc2cc(S(=O)(=O)N3CCC(Cc4ccccc4)CC3)ccc21	1	0.0591
Clc1ccccc1CNc1ncnc2ccccc12	1.06	1.56
CCOc1ccccc1NC(=O)c1nn(-c2ccc(OC)cc2)c(=O)c2ccccc12	1.04	1.03
Cc1onc(-c2c(Cl)cccc2Cl)c1C(=O)Nc1ccccc1C(N)=O	0.936	-0.985
COc1ccc(OCc2nc(C#N)c(N3CC(C)CC(C)C3)o2)cc1 (stereo not given)	0.764	-1.47
Cc1ccccc1-n1c(-c2ccccc2)nc2c(cnn2-c2ccccc2)c1=O	1	0.0473
O=C1c2ccccc2C(=O)N1c1cccc(-c2csc(Nc3ccc(Br)cc3)n2)c1	0.772&0.953	-5.03&-1.1
CCC1CCCCN1CCCNC(=O)c1ccc2c(c1)NC(=O)C(C(C)C)N2 (stereo not given)	1.09	0.0995
Cc1c(C(=O)NC(C)CCc2ccccc2)oc2ccc(S(=O)(=O)N3CC(C)CC(C)C3)cc12 (stereo not given)	1	0.0158
Cc1onc(-c2ccccc2Cl)c1C(=O)Nc1nnc(C2CCCCC2)s1	0.972	-0.984
CCCCN(CCCNC(=O)C1CC(=O)N(c2ccc(F)c(Cl)c2)C1)Cc1ccccc1 (stereo not given)	1.05	1.02
O=C(O)c1cc(C23CC4CC(CC(C4)C2)C3)n(-c2ccccc2)n1	1.04	0.943
CCOc1ccccc1-n1cnc2cc(C(=O)NCCCOC)ccc21	0.947	-0.0527
CCOC(=O)c1cccc(NC(=O)CCNS(=O)(=O)c2ccc3c(c2)CCN3C(=O)CC)c1	0.978	-0.49
CCN(CC)CCNC(=O)CCC(=O)Nc1ccc2nc(N3CCOCC3)cc(C)c2c1	1.08	0.112
Cc1cccc(-c2noc(-c3cc(-c4ccccc4)nc4ccccc34)n2)c1	1.3	13.5
COc1ccc2[nH]cc(CCNC(=O)C3CCCNC3=O)c2c1 (stereo not given)	1.18	1.3
O=c1[nH]c2ccccc2n1CCCSc1ncccn1	1.02	0.258
Cc1cc(OCc2nc(-c3ccncc3)no2)ccc1Br	1.14	0.161
CCc1ccccc1NC(=O)c1noc2c1CCc1cc(OC)ccc1-2	1.1	2.12
CC(C)(O)C#Cc1ccc(C(=O)N2CCN(c3ccccn3)CC2)o1	1.03	0.42
O=C1c2ccccc2C(=O)N1Cc1nc2ccccc2c(=O)n1CCCn1ccnc1	0.968	-0.967
COc1ccc(CCNC(=O)Cn2nc(-c3ccc(C)cc3)ccc2=O)cc1OC	1.02	0.555
Cc1ccc(-c2nc(CS(=O)(=O)CC(=O)N(C)CCC#N)c(C)o2)cc1	1.02	0.0177
Cc1cccn2cc(-c3cc4ccccc4oc3=O)nc12	0.948	-1.01
CCOC(=O)CNC(=O)c1cc(-c2ccc(Cl)c(Cl)c2)nc2ccccc12	1.08	3.4
COc1cccc(-c2nc(CS(=O)(=O)CC(=O)NCCCc3ccccc3)c(C)o2)c1	0.996	-0.122
CC(C)(C)C1CCc2c(sc(NC(=O)c3cccc(Cl)c3)c2C(N)=O)C1 (stereo not given)	0.848	-1.92
CCN1C(=O)CSc2ccc(C(=O)NCCc3ccccc3)cc21	1.06	1.59
CCOc1ccc2nc(N3CCCC(C(=O)NCCc4ccc(C)cc4)C3)sc2c1 (stereo not given)	1.01	0.252
COc1ccc2c(c1)CCc1sc(NC(=O)c3cccnc3)nc1-2	0.971	-0.817
CN(Cc1nc(-c2ccccc2)cs1)C(=O)NC1(c2ccccc2)CC1	0.953	-0.166
Cc1cc(C)cc(NC(=O)CSCc2cnn(-c3ccccc3)c2-n2cccc2)c1	1.01	0.406
Cc1c(Cc2ccccc2)c(N2CCOCC2)n2c(nc3ccccc32)c1C#N	1.05	1.06
Cc1oc(-c2ccccc2F)nc1CS(=O)(=O)CC(=O)N1CCN(c2ccc(Cl)cc2)CC1	0.718	-7.33
O=C1CC(N2CCN(c3cccc(Cl)c3)CC2)C(=O)N1c1ccc(Br)cc1 (stereo not given)	0.87	-2.06
Cc1cc(C)cc(N(CC(=O)NCCc2ccc(Cl)cc2)S(=O)(=O)c2c(C)noc2C)c1	0.797	-0.821
COc1cccc(NS(=O)(=O)c2ccc3c(c2)CCN3C(=O)C2CC2)c1	0.949	-1.53
(cont.)
SMILES	CBX7 AlphaScr	CBX7 AlphaScr z-score
N#Cc1cccc(NC(=O)Cc2c(C(=O)O)[nH]c3ccccc23)c1	0.972	-0.375
COc1ccc(-c2nc3ccccc3n2Cc2ccc(Cl)cc2)cc1	0.764	-2.25
Cn1nnc(-c2ccc(OCc3ccccc3F)cc2)n1	1.11	3.12
Cc1ccn2c(NC(=O)COc3ccccc3)c(-c3ccc(F)cc3)nc2c1	1.16	1.55
CC(C)(C)c1ccc(C(=O)Nc2nnc(-c3ccccc3F)s2)cc1	0.96	-0.946
Cc1ccnc(N2C(=O)c3ccccc3C2Nc2ccc(Br)c(C)c2)c1 (stereo not given)	1.06	2.07
COc1cccc(OC)c1C(=O)Nc1ccc(S(=O)(=O)Nc2nccs2)cc1	1.02	0.507
O=C(CSc1nc(-c2cccc(F)c2)[nH]c1-c1ccccc1)Nc1ccc2c(c1)OCO2	0.875	-3.32
Cc1ccccc1N1C(=O)c2ccccc2C1Nc1cccc(C)c1C (stereo not given)	0.885	-3.86
O=C(CCNS(=O)(=O)c1ccc(Cl)cc1)NCCc1ccccc1	1.12	1.37
CCC(=O)N1CCc2cc(S(=O)(=O)N3CCCCC3C)ccc21 (stereo not given)	0.942	-0.491
COc1ccc(NC(=O)Cc2c(C(=O)O)[nH]c3ccc(Cl)cc23)cc1Cl	0.839	-1.29
CCCN(CCC)CCNC(=O)c1ccc2nc(-c3ccccc3NC(C)=O)c(=O)[nH]c2c1	1.23	4.42
CC(NC(=O)C(=O)NCCN(C)C)C(c1cccs1)N1CCN(C)CC1 (stereo not given)	0.96	-0.902
O=C(Nc1cccc(O)c1)c1nn2c(C(F)(F)F)cc(-c3ccccc3)nc2c1Br	1.02	0.142
Cc1ccccc1N1C(=O)c2ccccc2C1Nc1c(F)c(F)cc(F)c1F (stereo not given)	1.03	0.963
Brc1ccccc1CN1CCN(Cc2cccnc2)CC1	1.13	2.2
CCC1Oc2ccc(C)cc2N(CC(=O)NC(c2ccccc2)c2ccccc2)C1=O (stereo not given)	1.01	0.265
Cc1cc(N2CCC(C(=O)N3CCCCC3)CC2)n2nc(C)c(-c3ccc(Cl)cc3)c2n1	1.14	0.347
Oc1cccc2nc(-c3ccc(F)cc3)c(-c3ccc(F)cc3)nc12	0.857	-0.942

Some of the entries above in a different format.
Each structure is followed by: CBX7 AlphaScr, CBX7 AlphaScr z-score
> CC(C)(C)c1ccc(C(=O)Nc2nnc(-c3ccccc3F)s2)cc1
    0.96, -0.946
> Cc1ccnc(N2C(=O)c3ccccc3C2Nc2ccc(Br)c(C)c2)c1 (stereo not given)
    1.06, 2.07
> COc1cccc(OC)c1C(=O)Nc1ccc(S(=O)(=O)Nc2nccs2)cc1
    1.02, 0.507

Next part:
SMILES	CBX7 AlphaScr	CBX7 AlphaScr z-score
Cc1nc2c(C(=O)NC3CC3)cnn2c(C)c1Cc1cccc(Br)c1	1.08	0.593
COc1ccccc1CNC(=O)Cn1cnc2sc(C(=O)NC3CCCCC3)c(C)c2c1=O	1.06	1.65
Fc1ccc(-c2cc(C(F)(F)F)nc(-n3ccnc3)n2)cc1	1.01	0.133
CCOc1ccc(-n2nc(C(=O)Nc3cc(OC)ccc3OC)c3ccccc3c2=O)cc1	1	0.0461
COc1cc2c(c(OC)c1)C(c1cc(OC)ccc1OC)CC(=O)N2 (stereo not given)	1.25	1.65
CCOc1ccc2c(c1)c(=O)c(S(=O)(=O)c1ccc(C)cc1)cn2Cc1ccc(OC)cc1	0.921	-2.97
COc1ccccc1C(=O)Oc1ccc(NC(=O)Cc2nn(C)c(=O)c3ccccc23)cc1	1.03	0.666
Cc1nc2cc(NCc3nc4ccccc4n3C)ccc2n1C	1	-0.00215
COc1ccc(CCNC(=O)CN2C(=O)CCSc3ccccc32)c(OC)c1	1	0.187
CCN(CC)CCNC(=O)c1ccc2nc(N3CCOCC3)sc2c1	1.26	2.41
Cc1cc(Nc2cc(F)ccc2C)n2nc(C)nc2n1	0.969	-0.68
COc1ccc(-c2noc(CCC(=O)NCCCN3CCc4ccccc4C3)n2)cc1	0.909	-1.31
Clc1ccc2nc(CSc3nc4ccccc4s3)cn2c1	0.959	-0.888
CCc1ccc(Sc2cc(C(=O)NCCN3CCOCC3)c3ccccc3n2)cc1	1.03	1.73
CCn1c(C(=O)N2CCC(C(=O)NCc3ccc4c(c3)OCO4)CC2)cc2sccc21	0.817	-0.805
CC(=O)NC(CCS(C)(=O)=O)C(=O)Nc1ccc(OC(F)(F)F)cc1 (stereo not given)	0.991	-0.389
Cc1ccc(N2C(=O)C3C(C2=O)C2(C)C=CC3(C)O2)c(C)c1 (stereo not given)	0.879	-1.92
CCC(=O)N1CCc2cc(S(=O)(=O)NC(CC(C)C)C(=O)NCCC(C)C)ccc21 (stereo not given)	1.02	0.715
COC(=O)Cc1nc(Nc2ccc(C)cc2)c2c(C)c(C)sc2n1	0.938	-1.23
CC1CCN(S(=O)(=O)c2ccc3[nH]c(=O)cc(C(=O)NCCN4CCOCC4)c3c2)CC1	0.941	-1.11
COc1ccc(C)cc1NC(=O)CCc1nc(-c2ccc(C)cc2)no1	1.12	2.91
CCCCNS(=O)(=O)c1ccc2nc(-c3cccs3)cc(C(=O)NCc3ccc(F)cc3)c2c1	0.904	-2.27
Cc1ccc(NC(=O)c2cc(S(=O)(=O)N3CCC(C)CC3)ccc2F)cc1C	0.755	-1.87
Cc1ccc(S(=O)(=O)N2CCCC(C(=O)NCc3ccc(F)cc3)C2)cc1 (stereo not given)	1.07	0.742
CC(C)(C)OC(=O)N1CCC(c2c(C(=O)Nc3ccc(F)c(Cl)c3)cnn2-c2ccccc2)CC1	0.857	-3.63
CCCn1c(C2CC(=O)N(c3cccc(C)c3C)C2)nc2ccccc21 (stereo not given)	0.987	-0.082
Cc1cc(CCN2CCC(=O)NC2=O)ccc1OC(C)C	1.01	0.202
CC(C)NC(=O)CCC1=NS(=O)(=O)c2ccccc2N1	1.32	2.43
COc1cc(OC)cc(C(=O)Nc2ccc(-c3nc4ccccc4o3)c(O)c2)c1	0.956	-0.356
CC(C)CCNC(=O)c1ccc2c(c1)N(Cc1ccc(Cl)cc1)C(=O)c1ccccc1S2	0.965	-0.973
CCN(C(=O)c1cn(CC)c(=O)c2cc(OC)c(OC)cc12)c1ccccc1F	1.02	0.708

In the list so far, 11 have a thiophene ring, fused or not.
SMILES	CBX7 AlphaScr	CBX7 AlphaScr z-score
CCOC(=O)c1c(NC(=O)c2ccccc2C)sc2c1CCCCC2	1.52	17.2
O=C(NCc1ccccc1)C1CCCN(S(=O)(=O)c2cccs2)C1 (stereo not given)	1.04	1.66
COc1cccc(-c2nn(C)c3sc(C(=O)N4CCCc5ccccc54)cc23)c1	0.93	-0.901
COc1cccc(-c2nc(-c3cccs3)no2)c1	1.37	17.8
CCOC(=O)N1CCc2c(sc(NCc3ccc(N(C)C)cc3)c2C(=O)Nc2ccccc2OCC)C1	0.715	-14.8
CC(C)(C)C1CCc2c(sc(NC(=O)c3cccc(Cl)c3)c2C(N)=O)C1 (stereo not given)	0.848	-1.92
CC(NC(=O)C(=O)NCCN(C)C)C(c1cccs1)N1CCN(C)CC1 (stereo not given)	0.96	-0.902
COc1ccccc1CNC(=O)Cn1cnc2sc(C(=O)NC3CCCCC3)c(C)c2c1=O	1.06	1.65
CCn1c(C(=O)N2CCC(C(=O)NCc3ccc4c(c3)OCO4)CC2)cc2sccc21	0.817	-0.805
COC(=O)Cc1nc(Nc2ccc(C)cc2)c2c(C)c(C)sc2n1	0.938	-1.23
CCCCNS(=O)(=O)c1ccc2nc(-c3cccs3)cc(C(=O)NCc3ccc(F)cc3)c2c1	0.904	-2.27

The list is partial. The share of hits here may be higher or lower than overall.
